AmpC inh no det – inhibitors of E. coli AmpC beta-lactamase without detergent; P00811; AID 585; Potency, µM (series often up to 28.7 µM), for the others: top-dose activity change, negative = inhibition; AmpC nitrocefin hydrolysis, absorbance 480 nm, no detergent; potencies from a single point are estimates; hit rate 1.8% among 71,000; active = falling curve, for most hits resting on a single point; inconclusive = weak or doubtful change; inactive = flat or rising curve; further: % of control where 0% means no effect; about half of the hits show no inhibition at the top dose; a quarter of the inactives give rising signals
Target sequence (P00811 whole entry, looked up): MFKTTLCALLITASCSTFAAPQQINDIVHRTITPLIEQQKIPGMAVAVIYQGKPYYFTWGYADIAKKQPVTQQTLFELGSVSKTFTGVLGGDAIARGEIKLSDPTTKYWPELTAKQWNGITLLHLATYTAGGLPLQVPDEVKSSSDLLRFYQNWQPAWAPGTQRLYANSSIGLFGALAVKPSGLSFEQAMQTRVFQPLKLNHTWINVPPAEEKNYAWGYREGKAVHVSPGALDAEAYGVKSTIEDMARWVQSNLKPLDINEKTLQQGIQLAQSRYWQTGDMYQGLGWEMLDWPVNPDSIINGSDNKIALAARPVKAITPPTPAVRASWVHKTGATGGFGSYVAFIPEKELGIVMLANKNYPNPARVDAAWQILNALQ
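AmpC in 20 mM phosphate buffer pH 7.0 was preincubated 15 min at room temperature with compounds. Nitrocefin (800 uM stock) was then added and hydrolysis followed at 480 nm every 20 s for 4 min.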
Starred values were filed as active, the others as inactive; ? = inconclusive; & = joins results of further samples; [ ] = another dose, or the depositor's remark. Potency means the concentration at half of the fitted maximal effect. Only part of the results is shown; count on the stated rates, not on these rows.

SMILES	AmpC inh no det
CCOc1ccccc1NC(=O)CSc1nnc(-c2ccccc2Cl)n1Cc1ccco1	40.6%
O=C1N2CCCc3cccc(c32)C12Nc1ccccc1S2 (centres undefined)	-1.0%
COc1ccc(OC)c(NC(=O)CSc2nc(C)cs2)c1	0.6%
Cc1cc(C)cc(NC(=O)N2CCC(c3nc4ccccc4o3)CC2)c1	41.8%
CCOc1cc(C2Nc3ccccc3C(=O)N2c2ccccc2)ccc1O (centres undefined)	1.1%
COc1ccccc1Oc1ccc(S(=O)(=O)NCc2ccccn2)cc1	10.4%
CCOC(=O)c1ccc(N2C(=O)C3ON(c4ccccc4)C(c4ccco4)C3C2=O)cc1 (centres undefined)	-5.1%
NC[C@@H]1O[C@H](O[C@H]2[C@H](O)[C@H](O[C@@H]3O[C@H](CO)[C@@H](O)[C@H](N)[C@@H]3O)[C@@H](N)C[C@H]2N)[C@@H](O)[C@H](O)[C@@H]1O	-14.3%[12.8 µM]
COc1ccccc1Cn1c(-c2ccco2)nc2nc3ccccc3nc21	62.5%
NC(=O)c1ccccc1	-3.0%&0.5%
COc1ccc(S(=O)(=O)C(C#N)c2nc3ccccc3nc2N2CCCC(C)C2)cc1 (centres undefined)	0.9%
O=C(Nc1ccccc1-c1ccccc1)c1ccco1	1.3%
CCCCn1c(SCC(=O)OCC)nnc1-c1ccoc1C	16.7%
COc1ccc(Nc2nc(-c3sc(N)nc3C)cs2)cc1	-11.8%
CCN(CC)c1ccc(NC(=O)COc2ccc(C)cc2)cc1	5.3%
COc1ccccc1Cn1c(=O)[nH]c2cccnc21	-2.9%
c1ccc2c(CN3CCN(Cc4c[nH]c5ccccc45)CC3)c[nH]c2c1	1.7%[5.75 µM]
O=C(NCc1ccc2c(c1)OCO2)C(c1ccco1)N(C(=O)c1csnn1)c1ccccc1 (centres undefined)	11.9%
Cc1ccccc1OCCNC(=O)CNC(=O)c1ccccc1O	-0.6%
CC(=O)N1CCc2cc(S(=O)(=O)NC(C(=O)NCc3ccccc3)C(C)C)ccc21 (centres undefined)	13.3%
Cc1ccc(-c2nc3cnccn3c2Nc2ccc3c(c2)OCCO3)o1	30.0%
C=CCn1c(SCC(=O)c2ccc(CNC(C)=O)o2)nc2scc(C3CC3)c2c1=O	112.1%
COc1ccc2[nH]c(=O)c(CN(Cc3nnnn3Cc3ccccc3)CC3CCCO3)cc2c1 (centres undefined)	84.0%
CS(=O)(=O)N1CCc2cc(C(=O)OCC(=O)c3ccccc3)ccc21	8.8%
N#CCCN1CCN(CCC#N)CC1	3.7%
NC(=O)CCn1nc(-c2ccccc2)c2ccccc2c1=O	3.4%
COc1ccccc1CN1CCC2(CC1)CCN(C(C)=O)CC2	-0.7%
N#Cc1c(C(F)(F)F)cc(-c2ccccc2)nc1SCc1nc(N)nc(N2CCOCC2)n1	86.6%
O=C(c1cnn2c(C(F)(F)F)cc(-c3ccco3)nc12)N1CCCc2ccccc21	3.5%
CCCCOC(=O)C1=C(C)Nc2ncnn2C1c1cc(OC)c(OC)cc1OC (centres undefined)	69.1%
COc1ccc(CNC(=O)[C@H]2C[C@@H]2[C@H](NP(=O)(c2ccccc2)c2ccccc2)c2ccccc2)cc1OC	118.6%
COCCNc1nc(=S)[nH]c2cc(OC)c(OC)cc12	-18.6%
Cc1nc2ccccc2n1-c1nc(-c2ccco2)cc(C(F)(F)F)n1	48.2%
O=C1CC(N2CCN(c3ccccc3Cl)CC2)C(=O)N1c1ccccc1 (centres undefined)	72.5%
COc1ccc2nc(NC(=O)c3ccoc3C)sc2c1	12.7%
CCOc1cccc(-c2nnc(SCC(=O)Nc3cccc(OC)c3)n2N)c1	7.6%
CN(C)c1ccc(C(c2nnnn2C2CCCCC2)N2CCN(C(=O)c3ccco3)CC2)cc1 (centres undefined)	4.0%
Nc1nc2c(nc(Br)n2[C@@H]2O[C@H]3COP(=O)(O)O[C@@H]3[C@H]2O)c(=O)[nH]1	-1.9%
O=C(NCC1CCCO1)c1ccc2c(c1)C(=O)N(C1CCCCC1)C2=O (centres undefined)	75.2%
Oc1ccc2ccccc2c1CN1CCN(c2ccccc2F)CC1	-2.4%
Cc1c(O)ccc2c3c(c(=O)oc12)CCCC3	-7.4%
CN1CCN(c2ccncc2S(=O)(=O)N2CCN(C)CC2)CC1	-7.4%[5.75 µM]
CCn1cc(Br)c(C(=O)NC(C)c2ccccc2)n1 (centres undefined)	-2.7%
O=C(O)c1cccc(S(=O)(=O)Nc2ccccc2Cl)c1	-9.4%
O=C(COc1ccc(S(=O)(=O)N2CCCC2)cc1Cl)NCc1ccc2c(c1)OCO2	48.7%
COc1ccc(Cn2c(=O)n(Cc3ccco3)c(=N)c3c4c(sc32)COC(C)(C)C4)cc1	98.5%
Cc1ccc(-n2c(=O)cc(N3CCC(C)CC3)[nH]c2=O)cc1	4.4%
CCOC(=O)C(CC)n1cnc2c(nnn2-c2ccc(OC)cc2)c1=O (centres undefined)	21.8%

Filtered by structure: the entries above with a CF3 group
SMILES	AmpC inh no det
N#Cc1c(C(F)(F)F)cc(-c2ccccc2)nc1SCc1nc(N)nc(N2CCOCC2)n1	86.6%
O=C(c1cnn2c(C(F)(F)F)cc(-c3ccco3)nc12)N1CCCc2ccccc21	3.5%
Cc1nc2ccccc2n1-c1nc(-c2ccco2)cc(C(F)(F)F)n1	48.2%

(continued)
SMILES	AmpC inh no det
O=C(c1ccc2ccccc2c1)N1CCN(c2ccc(O)cc2)CC1	20.4%
COc1cc(Br)c(S(=O)(=O)Nc2c(C)n(C)n(-c3ccccc3)c2=O)cc1OC	7.0%
O=C(O)CSc1ncccc1[N+](=O)[O-]	14.3%[5.75 µM]
CCOC(=O)C1Cn2c(nc3c(c2=O)C(C)(C)Cc2ccccc2-3)S1 (centres undefined)	85.2%
N=c1c2c3c(sc2ncn1CCCN1CCOCC1)CCCCC3	2.9%
CC(Oc1ccccc1F)C(=O)NCCN1CCCCC1 (centres undefined)	11.2%
CCOc1cc(NC(=O)c2ccco2)c(OCC)cc1NC(=O)c1cc(OC)c(OC)c(OC)c1	90.5%
Nc1ccccc1OCCOCCOc1ccccc1N	7.6%
CN(C)CCCN1C(=O)CSC1c1ccccc1 (centres undefined)	3.16µM*[single pt active]
N#Cc1cccc(NC(=O)N2CC3(CCN(C(=O)Oc4ccccc4)CC3)C2)c1	68.9%
COC(=O)C1(Cc2ccccc2)C=C2C(=C(C)C(=O)C2C)CN1 (centres undefined)	31.2%
CCOC(=O)Cc1nnc(NC(=O)c2ccco2)s1	-2.2%

As entered above:
Nc1ccccc1OCCOCCOc1ccccc1N – AmpC inh no det = 7.6%
O=C(c1ccc2ccccc2c1)N1CCN(c2ccc(O)cc2)CC1 – AmpC inh no det = 20.4%
CCOC(=O)Cc1nnc(NC(=O)c2ccco2)s1 – AmpC inh no det = -2.2%

Structural class: the entries above containing two or more sulfur atoms.
SMILES	AmpC inh no det
COc1ccc(OC)c(NC(=O)CSc2nc(C)cs2)c1	0.6%
COc1ccc(Nc2nc(-c3sc(N)nc3C)cs2)cc1	-11.8%
C=CCn1c(SCC(=O)c2ccc(CNC(C)=O)o2)nc2scc(C3CC3)c2c1=O	112.1%

The list goes on:
SMILES	AmpC inh no det
COCC(=O)N1CCC2(CC1)CCN(C(=O)Nc1ccc(OC)cc1)CC2	-0.6%
CCOC(=O)C1=C(C)OC(N)=C(C#N)C1c1ccc(OC)c(C)c1OC (centres undefined)	20.1%
COCCn1c(=O)c(-c2ccccc2)nc2cnc(Nc3ccccc3)nc21	15.6%
O=C(CN1CCN(c2ncccn2)CC1)N1CCN(C(c2ccccc2)c2ccccc2)CC1	133.9%
Cc1cnn(-c2cc(Oc3ccccc3)ncn2)c1	-4.7%
O=C(c1ccco1)N1CCN(CC(=O)N(C2CCCCC2)C2CCS(=O)(=O)C2)CC1 (centres undefined)	11.6%
O=C(O)C(C(=O)O)P(=S)(S)c1ccccc1 (centres undefined)	8.2%[5.75 µM]
CN1CCc2c(sc3c2c(=O)n(-c2ccccc2)c2nncn32)C1	10.8%
COc1nc(Nc2cccc(C)c2)nc(N2CCCCC2)n1	43.6%
Cc1cc(C)nc(NC2=NCC(=O)N2c2cc(Cl)cc(Cl)c2)n1	8.9%
Cc1ccc2c(c1)CC1(CN2C)C(=O)NC(=O)N(c2ccccc2C)C1=O (centres undefined)	7.7%
CCCC(=O)Nc1cc(-c2nn(C)c(=O)c3ccccc23)ccc1N1CCCCC1	126.1%
c1ccc(CC2CCN(c3nc4ccccc4n4nnnc34)CC2)cc1	12.6µM*
CCCNC(=O)c1ccccc1NS(=O)(=O)c1ccc2c(c1)OCCO2	-9.4%
CCN(Cc1cc2ccccc2[nH]c1=O)C(=O)c1cccnc1	4.5%
O=C(OCc1cc2ccccc2[nH]c1=O)c1cccnc1	9.6%
O=C(Nc1ccc(O)cc1)C1CCCN1S(=O)(=O)c1ccc(F)cc1 (centres undefined)	-11.1%
Cc1ccsc1C(=O)OCC(=O)c1cc(C)n(CC2CCCO2)c1C (centres undefined)	61.8%
CC1=C(C(N)=O)C(c2ccc(Cl)cc2Cl)n2ncnc2N1 (centres undefined)	-2.1%
Cc1nccn1CCc1n[nH]c(=S)n1Cc1ccccc1	9.1%
CCN(CC)CCNC(=O)C(C(=O)c1ccccc1)n1ccccc1=O (centres undefined)	-6.0%
Cc1occc1-c1nnc(SCC(=O)NCC2CCCO2)n1C (centres undefined)	8.1%
Cc1cccc(NCc2ccccc2O)n1	-10.2%
CCCCn1c(=S)[nH]c2c(oc3ccc(Cl)cc32)c1=O	6.31µM*
O=C(COC(=O)c1cccs1)NCc1ccc2c(c1)OCO2	-12.1%
CC1(O)C[C@]2(C)N(O)C3CCCC[C@@H]3N2O1 (some centres undefined)	-1.3%
Cc1sc(NC(=O)c2ccccc2)c(C(=O)N2CCN(C)CC2)c1C	-12.8%
COC(=O)[C@@H]1C[C@H]1[C@@H](N)c1ccccc1	0.8%
CCOC(=O)Cn1c(C)nc2c(C(=O)OCC)sc(C)c2c1=O	29.8%
COc1cccc(OC)c1C(=O)N1CCN(Cc2ccc3c(c2)OCO3)CC1	22.4%
N#CCCn1c(=O)c(-c2ccccc2)nc2cnc(N3CCNCC3)nc21	40.5%
CCOc1ccc(S(=O)(=O)Nc2cccnc2)cc1	-0.9%
O=C(O)c1cc(-c2ccncc2)nc2ccc(F)cc12	-2.0%
CSC(=O)NC12CC3CC(CC(C)(C3)C1)C2	1.2%
CCCCCCc1ccc(-c2ccc(C#N)cc2)cc1	-9.6%
c1ccc2c(c1)CCN(c1nc3ccccc3n3cnnc13)C2	21.6%
CCc1nnc(NC(=O)CSc2nnc3ncccn23)s1	-6.6%
COc1ccc2[nH]cc(CCNc3ncncc3-c3ccccc3OC)c2c1	15.4%
O=C(O)c1cccc(NS(=O)(=O)c2ccc(Cl)c(C(=O)O)c2)c1	-1.0%
COc1ccc(S(=O)(=O)Nc2cc(C(=O)NCCC(C)C)ccc2N2CCOCC2)cc1	104.0%
O=C(c1csnn1)N1CCC2(CC1)CCN(c1cccc(-c3ccccc3)c1)CC2	80.8%
Cc1nnc(SCc2cnc(-c3ccc(C(C)C)cc3)s2)n1C	94.3%
CC(=O)NCCC(=O)Nc1ccc(C)c(F)c1	7.3%
CO[C@]1(NC(=O)Cc2cccs2)C(=O)N2C(C(=O)O)=C(COC(N)=O)CS[C@H]21	5.01µM*
O=C1COc2cccnc2N1	-4.1%
COc1ccc(N2CCN(CC(=O)Nc3c(C)cc(C)cc3C)CC2)cc1	80.7%
CCCc1ccc(OCCNC(=O)CC)cc1	19.8%
O=C(O)c1cccc(CSc2ncccn2)c1	-8.9%
Cc1cc(NC(=O)c2noc3c2CCc2ccccc2-3)no1	3.98µM*[single pt active]
CC12CCC(C(=O)NCc3ccc4c(c3)OCO4)(OC1=O)C2(C)C (centres undefined)	2.9%
Cc1cc(C)c2cc(C#N)c(SCC(=O)NCc3ccco3)nc2c1	?
Cc1ccc2c(c1)nnn2C1CCN(CC(=O)N2CCN(c3ccc(F)cc3)CC2)CC1	138.6%
CN1C(=O)N(c2cccc3ccccc23)C(n2cncn2)C1(C)C (centres undefined)	1.9%
COc1ncc2nc(-c3ccc(Cl)cc3)c(=O)n(C)c2n1	-9.7%
O=C(Nc1ccc(Oc2ccccc2)cc1)C1CCCN(c2ncccn2)C1 (centres undefined)	19.7%
CCn1c(/N=C/c2c[nH]c3ccccc23)nc2ccccc21	104.7%
CN(CCc1ccccn1)S(=O)(=O)c1ccc2c3c(cccc13)C(=O)N2	5.1%
COc1ccccc1CNc1ncnc2ccc(-c3ccccc3OC)cc12	23.1%
CCC(=O)Nc1nonc1-c1nc2ccccc2n1Cc1ccccc1	3.9%
COc1ccccc1-c1cn(S(=O)(=O)c2ccc(C)cc2)nc1N	-14.9%

Continued:
SMILES	AmpC inh no det
CCOC(=O)N1CCN(C(=O)c2cc3c(=O)[nH]c4ccccc4c3s2)CC1	40.7%
CCCCCCN=C(CC)c1c(O)n(CCCC)c(=O)[nH]c1=O	21.2%
CN1CCN(/C=N/c2c(C#N)cnn2C)CC1	-8.2%
Cc1cc(C(=O)N2CCCCCC2)cs1	5.5%
O=C(c1cccs1)N1CCN(C/C=C/c2ccccc2)CC1	47.1%
Fc1ccccc1OCCSc1nnnn1-c1ccccc1	-10.0%
O=C(CCC1N=C2c3ccccc3N=C(SCc3ccccc3Cl)N2C1=O)NCc1ccco1 (centres undefined)	94.5%

Among those listed so far, these have bromine.
SMILES	AmpC inh no det
Nc1nc2c(nc(Br)n2[C@@H]2O[C@H]3COP(=O)(O)O[C@@H]3[C@H]2O)c(=O)[nH]1	-1.9%
CCn1cc(Br)c(C(=O)NC(C)c2ccccc2)n1 (centres undefined)	-2.7%
COc1cc(Br)c(S(=O)(=O)Nc2c(C)n(C)n(-c3ccccc3)c2=O)cc1OC	7.0%

High-throughput results: PubChem, National Center for Advancing Translational Sciences (NCATS)
